Screens from PubChem.
Pf gamet viab – kills late stage P. falciparum gametocytes; P. falciparum stage V gametocytes, ATP luminescence, 24 h; inhibition, % at 10.9 µM; 150,000 tested, 0.065% active; AID 743093;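 active = inhibition above the mean plus 3 SD of compounds within the control limits, set per campaign, cut at about 38% in these data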;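 note: 0% = DMSO wells and 100% = medium only without gametocytes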
RGS8-Gao – regulators of human RGS8-Galphao interaction; multiplexed bead flow cytometry, RGS8-Galphao binding; actives lie on both sides; 220,000 tested, 0.34% active; AID 1423; response (percent of control binding), % at 10 µM; in the data active = response below about 60% or above about 140%; inactive = in between;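 note: Galphao activated as the GDP aluminium fluoride complex binding bead-coupled RGS8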
Target sequence (P09471 whole entry, looked up): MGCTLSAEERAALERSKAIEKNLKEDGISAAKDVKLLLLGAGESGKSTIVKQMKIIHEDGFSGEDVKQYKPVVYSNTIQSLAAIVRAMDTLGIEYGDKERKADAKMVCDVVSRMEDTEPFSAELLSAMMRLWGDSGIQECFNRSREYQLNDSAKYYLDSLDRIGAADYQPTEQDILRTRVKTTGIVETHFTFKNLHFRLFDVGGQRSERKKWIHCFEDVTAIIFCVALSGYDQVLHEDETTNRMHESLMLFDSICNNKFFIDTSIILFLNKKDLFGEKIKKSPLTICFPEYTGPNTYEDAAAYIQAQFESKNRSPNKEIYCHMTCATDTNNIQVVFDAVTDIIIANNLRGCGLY
* = called active by the depositor; / = not tested or not shown. This is a subset, and most or all hits are left out here.

SMILES | Pf gamet viab | RGS8-Gao
COc1cc(NC(=O)c2ccc(N)nc2)cc(C(=O)Nc2cccc(C(F)(F)F)c2)c1 | 14.0 | 100.1
COc1cc(NC(=O)c2nccn2C)cc(C(=O)Nc2cccc(C(F)(F)F)c2)c1 | / | 99.1
Nc1ccc(C(=O)Oc2ccc([N+](=O)[O-])cc2)cc1 | / | 102.7
C/C=C\C=C/C(=O)Nc1cccc(C2=NOC3(C2)C[C@@H](C(N)=O)N(C(=O)[C@H]2CCC(=O)N2)C3)c1 (stereo not given in full) | / | 98.3
COC(=O)c1cccc(CN2C(=O)SC(Nc3ccc(C)cc3)C2=O)c1 (stereo not given) | -0.9 | 107.0
Nc1cccc2c1C(=O)N(C(=O)/C=C/c1cccc(Br)c1)C2=O | -16.2 | 90.6
CN(C(=O)c1c[nH]c(=O)cc1C(F)(F)F)c1ccc(Cl)cc1 | -18.6 | 102.2
CN(C)/C=N/c1nc(Sc2ccc(C(F)(F)F)cc2[N+](=O)[O-])n[nH]1 | 7.3 | 103.6
COc1ccc(CN(CCC(c2ccco2)C(C)C)C(C)=O)cc1OC (stereo not given) | -3.0 | 108.7
CN(C)c1oc(-c2ccccc2[N+](=O)[O-])nc1C#N | -17.9 | 92.1

Single entries from the entries so far:
RGS8-Gao, COc1cc(NC(=O)c2ccc(N)nc2)cc(C(=O)Nc2cccc(C(F)(F)F)c2)c1 = 100.1
RGS8-Gao, CN(C)c1oc(-c2ccccc2[N+](=O)[O-])nc1C#N = 92.1
RGS8-Gao, COc1cc(NC(=O)c2nccn2C)cc(C(=O)Nc2cccc(C(F)(F)F)c2)c1 = 99.1
RGS8-Gao, Nc1ccc(C(=O)Oc2ccc([N+](=O)[O-])cc2)cc1 = 102.7

Rewritten with two lines to a compound: part of the list above.
The line under a structure holds: Pf gamet viab, RGS8-Gao
> COc1cc(NC(=O)c2nccn2C)cc(C(=O)Nc2cccc(C(F)(F)F)c2)c1
→ /, 99.1
> Nc1ccc(C(=O)Oc2ccc([N+](=O)[O-])cc2)cc1
→ /, 102.7

The listing picks up, repeating the two entries before the break.
SMILES | Pf gamet viab | RGS8-Gao
COc1ccc(CN(CCC(c2ccco2)C(C)C)C(C)=O)cc1OC (stereo not given) | -3.0 | 108.7
CN(C)c1oc(-c2ccccc2[N+](=O)[O-])nc1C#N | -17.9 | 92.1
COc1cc(NC(=O)c2cnc(N)s2)cc(C(=O)Nc2cccc(C(F)(F)F)c2)c1 | 26.4 | 101.3
Cc1ccc(Nc2nc(N)nc(CSc3nnc(C)s3)n2)cc1 | -4.7 | 102.9
O=[N+]([O-])c1ccc2c(c1)/C(=N\O)c1ccccc1-2 | -2.7 | 102.3
CCC(=O)N(CCC(c1ccc(C)cc1)c1ccco1)Cc1ccco1 (stereo not given) | -19.1 | 95.7
O=C1Nc2cc3c(cc2C1=O)sc1ccccc13 | -20.8 | 99.8
CN(Cc1ccccc1Cl)C(=O)c1cnccc1C(F)(F)F | 1.6 | 99.9
CCN1CCN(c2oc(/C=C/c3ccccc3)nc2C#N)CC1 | 7.4 | 101.2
N#C/C(=C\c1ccc(-c2ccc([N+](=O)[O-])cc2)o1)C(=O)Nc1nc(-c2cccs2)cs1 | -2.8 | 100.7
O=C(O)c1cccc(-n2cccc2/C=C2/NC(=O)N(c3cccc(Cl)c3)C2=O)c1 | -21.1 | 99.8
CCC1CCCCN1CC(=O)c1c(C)[nH]c2ccc(OC)cc12 (stereo not given) | 6.8 | 102.1

Cc1cc(N/N=C/c2ccccc2[N+](=O)[O-])nc(-n2nc(C)cc2C)n1
  Pf gamet viab: -3.8 | RGS8-Gao: 97.8
COc1ccc(/C(C)=N/NC(=O)c2ccc(NS(=O)(=O)c3cccs3)cc2)cc1
  Pf gamet viab: -0.1 | RGS8-Gao: 100.9
O=C(Nc1nc2ccc([N+](=O)[O-])cc2s1)c1ccncc1
  Pf gamet viab: 2.4 | RGS8-Gao: 97.0
Cc1cc(C(F)F)n2ncc(C(=O)NCc3ccc(F)cc3)c2n1
  Pf gamet viab: -12.1 | RGS8-Gao: 100.1
Cc1ccc2[nH]c(=O)c(-c3noc(CC(C)C)n3)cc2c1
  Pf gamet viab: 12.3 | RGS8-Gao: 98.8

Three neighbouring compounds from above, quoted:
CCC1CCCCN1CC(=O)c1c(C)[nH]c2ccc(OC)cc12 (stereo not given)
  Pf gamet viab: 6.8 | RGS8-Gao: 102.1
Cc1cc(N/N=C/c2ccccc2[N+](=O)[O-])nc(-n2nc(C)cc2C)n1
  Pf gamet viab: -3.8 | RGS8-Gao: 97.8
COc1ccc(/C(C)=N/NC(=O)c2ccc(NS(=O)(=O)c3cccs3)cc2)cc1
  Pf gamet viab: -0.1 | RGS8-Gao: 100.9
